# Assay outcomes from PubChem.
# AF4-AF9 inh = inhibitors of AF4 peptide binding to AF9, primary screen, biochemical, AlphaScreen, biotin-AF4 peptide, FLAG-AF9, single point; Protein AF-9 (Homo sapiens), P42568; inhibition, % at 10 µM; hit rate 0.47% among 350,000; AID 651704, 2012;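 active = every replicate reaching a set inhibition limit, whatever the replicate mean, cut at about 25% in these data; inconclusive = mean inhibition reaches that limit but some replicates miss it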;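 note: 0% = plate neutral control median and 100% = total signal loss; the record names both 10 and 1 µM as test concentration; the first replicate is given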
# Target sequence (P42568 whole entry, looked up): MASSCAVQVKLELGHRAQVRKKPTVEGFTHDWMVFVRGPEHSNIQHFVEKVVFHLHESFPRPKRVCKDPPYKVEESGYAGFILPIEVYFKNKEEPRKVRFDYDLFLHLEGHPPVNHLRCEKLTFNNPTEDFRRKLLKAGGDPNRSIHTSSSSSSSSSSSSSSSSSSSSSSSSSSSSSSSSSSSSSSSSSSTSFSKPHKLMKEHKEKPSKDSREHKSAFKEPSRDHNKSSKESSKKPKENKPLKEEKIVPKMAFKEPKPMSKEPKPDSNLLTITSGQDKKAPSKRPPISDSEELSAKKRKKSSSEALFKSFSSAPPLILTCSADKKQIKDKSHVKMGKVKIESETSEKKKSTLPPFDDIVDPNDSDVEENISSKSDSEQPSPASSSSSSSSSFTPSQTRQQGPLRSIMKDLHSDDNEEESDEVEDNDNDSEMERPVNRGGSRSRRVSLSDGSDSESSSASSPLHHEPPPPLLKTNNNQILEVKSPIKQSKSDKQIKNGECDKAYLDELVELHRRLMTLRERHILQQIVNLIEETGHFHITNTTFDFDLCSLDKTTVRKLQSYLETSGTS
# FGF22 binding = binders of human FGF22 protein, primary screen, FGF22 synaptogenesis inhibitor project, biophysical, thermal shift, single point | Fibroblast growth factor 22 (Homo sapiens), Q9HCT0 | calls only at 9.99 µM | recombinant FGF22 thermal shift, SYPRO orange fluorescence; percent of sucrose octasulfate shift, DMSO zero | hit rate 1.5% among 340,000 | AID 651658, 2012;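 active = melting point raised past a set limit in the mean and every replicate; inconclusive = no clear call; three in four hits are not shown here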
# Target sequence (Q9HCT0 whole entry, looked up): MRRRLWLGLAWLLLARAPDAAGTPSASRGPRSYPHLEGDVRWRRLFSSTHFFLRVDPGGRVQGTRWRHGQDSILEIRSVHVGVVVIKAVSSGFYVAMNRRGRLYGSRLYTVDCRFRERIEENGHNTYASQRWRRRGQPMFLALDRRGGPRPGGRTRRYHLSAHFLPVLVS
# rRNA inh HTS = reduced GFP signal of wild-type E. coli, primary screen, bacterial rRNA inhibitor project, GFP/RFP fluorescence, OD600, single point; E. coli WT GFP vs humanized-ribosome RFP mutants, 24 h; active compounds read low; DMSO median 0, no signal -100; GFP signal change (wild-type ribosome), % (concentration not given with the values); hit rate 1.6% among 350,000;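 active = significant combined selectivity score with lowered wild-type GFP, culture density cut under 30%, mutant RFP and density less affected; inactive = any of these conditions unmet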; note: one replicate is shown; some compounds called inactive have numbers as strong as hits
# rRNA inh HTS OD600 = recorded beside rRNA inh HTS, whose call it bears; OD600 change, %; measured here: OD600 growth;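 optical density of the mix in the first replicate; 0 = DMSO median and -100 = no signal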
# rRNA inh HTS RFP = recorded beside rRNA inh HTS, whose call it bears; RFP signal change, %; measured here: RFP humanized mutant strains;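 first replicate; 0 = DMSO median and -100 = no signal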
# * marks the source's active call; other numbers are inactive results; i = inactive; u = inconclusive; & = joins results of further samples. Only part of the results is shown; the hit share may differ from the screen's.
SMILES,AF4-AF9 inh,FGF22 binding,rRNA inh HTS,rRNA inh HTS OD600,rRNA inh HTS RFP
Cc1ccc([C@H]2C[C@@H](n3cc(-c4ccc(F)cc4)nn3)[C@H](O)CN2C(=O)c2cccs2)cc1,-2.1,i,-6,-18,3.2
CO[C@@H]1CN(C)C(=O)c2cc(NS(=O)(=O)c3ccc(C)cc3)ccc2OC[C@@H](C)N(C(=O)NC(C)C)C[C@H]1C,-1.9,i,0,-5,1.6
C[C@H]1CN([C@@H](C)CO)C(=O)CCCn2cc(nn2)CO[C@H]1CN(C)Cc1cccc2c1OCCCO2,-1.0,i,1,3,-2.2
COc1ccc(CC(N)c2csc(NC(=O)c3cc(C(C)(C)C)oc3C)n2)cc1 (configuration not stated),9.0,i,-27,-35,-8.7
c1ccc(-c2ccncn2)cc1,-2.9,i,13,19,-1.3
COc1ccc(C(O)c2nc(-c3cccc(F)c3)cs2)cc1 (configuration not stated),-48,i,-6,-15,12
COc1ccc2c3c(n(C)c2c1)[C@H](CO)N(C(=O)C1CCCCC1)CC31CCN(C(=O)CN(C)C)CC1,11,i,1,1,-1.5
CCCNC(=O)[C@H]1[C@H](CO)[C@H]2Cn3c(ccc(-c4ccc(F)cc4)c3=O)[C@H]2N1CC1CC1,-1.4,i,-3,-5,-1.4
COCC#Cc1ccc2c(c1)O[C@H](CN(C)S(=O)(=O)c1ccc(F)cc1)[C@H](C)CN([C@@H](C)CO)S2(=O)=O,-5.3,i,2,-2,1.3
COc1cccc(NC(=O)Nc2ccc3c(c2)C(=O)N(C)C[C@@H](OC)[C@@H](C)CN(C)[C@H](C)CO3)c1,0.3,i,-2,-3,-1.1
Cc1cc(C)cc(CC(=O)N2CCC2(C)C(=O)NS(=O)(=O)c2cccc(F)c2)c1 (configuration not stated),-4.7,i,5,9,-0.7
N=c1ccn(O)cc1CCc1ccccc1,1.8,i,8,12,-3.3
C[C@H](CO)N1C[C@H](C)[C@@H](CN(C)C(=O)CCCN(C)C)OCc2cn(nn2)CCCC1=O,-6.3&-1.4,i,2&-1,0&5,-9.5&-1.9
CN(C(=O)c1cccc(NC(=O)Cc2cccc(NC(=O)C3CCN(C(=O)C4CCCC4)CC3)c2)c1)C1CC1,0.4,i,-3,-4,-3.3
O=C(Nc1ccc(F)cc1)N1[C@@H]2CNC[C@H]1C2c1ccc(-c2cccnc2)cc1 (some centres not stated),3.9,i,5&4,10&9,3.8&-3.5

# A draw from above in order of count of non-hydrogen atoms, falling.
SMILES,AF4-AF9 inh,FGF22 binding,rRNA inh HTS,rRNA inh HTS OD600,rRNA inh HTS RFP
C[C@H](CO)N1C[C@H](C)[C@@H](CN(C)C(=O)CCCN(C)C)OCc2cn(nn2)CCCC1=O,-6.3&-1.4,i,2&-1,0&5,-9.5&-1.9
Cc1cc(C)cc(CC(=O)N2CCC2(C)C(=O)NS(=O)(=O)c2cccc(F)c2)c1 (configuration not stated),-4.7,i,5,9,-0.7
COc1ccc(C(O)c2nc(-c3cccc(F)c3)cs2)cc1 (configuration not stated),-48,i,-6,-15,12
N=c1ccn(O)cc1CCc1ccccc1,1.8,i,8,12,-3.3
c1ccc(-c2ccncn2)cc1,-2.9,i,13,19,-1.3

# (more compounds)
SMILES,AF4-AF9 inh,FGF22 binding,rRNA inh HTS,rRNA inh HTS OD600,rRNA inh HTS RFP
CCNC(=O)Nc1ccc2c(c1)C(=O)N(C)[C@H]1CC[C@H](CC(=O)NCc3ccc(F)cc3)O[C@@H]1CO2,-0.2,i,8,7,1.2
CO[C@@H]1CN(C)C(=O)c2ccc(NS(C)(=O)=O)cc2OC[C@H](C)N(C(=O)C2CCOCC2)C[C@@H]1C,-2.8,i,1,-1,-0.2
Cc1ccc(S(=O)(=O)Nc2ccc3c(c2)C(=O)N([C@@H](C)CO)C[C@H](C)[C@H](CN(C)S(=O)(=O)c2cn(C)cn2)OCCCC[C@H](C)O3)cc1,2.1,i,-4,-4,-0.4
CC(C)CN(C(=O)COC(=O)c1ccccc1SCC(=O)N1CCCC1)C1CCS(=O)(=O)C1 (configuration not stated),-0.3,i,6,13,-0.2
C[C@H](NC(=O)N(C)C[C@@H]1OCc2ccccc2-c2c(n(C)c3ccccc23)C(=O)N([C@H](C)CO)C[C@@H]1C)c1ccccc1,-2.8,i,-1,-3,4.5
CCCNC(=O)N[C@@H]1CC[C@H](CC(=O)N2CCN(C)CC2)O[C@@H]1CO,1.5,i,-1,8,-4.8
O=C(O)c1cc2c(ncc3c(=O)n(-c4ccccc4)[nH]c32)s1,0.5,i,10,14,2.0
O=C1NC[C@@H](CCCCN2CCN(CCc3ccc(O)cc3)C(=O)C2=O)N(CCC2CCCCC2)C1=O,-0.2,i,11,12,-0.3
CN1c2ccc(-c3ccccc3F)cc2[C@@H]2[C@@H](CCN2C(=O)Cc2ccccn2)[C@@H]1CO,7.8,i,1,-3,18
CCCn1c(N)c(C(=O)CN(C)CC(=O)Nc2c(C)cc(C)cc2C)c(=O)[nH]c1=O,-8.6,i,1,2,-0.4
CO[C@H]1CN(C)C(=O)c2cc(NC(=O)C3CC3)ccc2OC[C@H](C)N(C)C[C@@H]1C,-1.1,i,3,4,-1.5
C[C@@H]1CN([C@H](C)CO)C(=O)c2cc(NC(=O)Cc3ccccc3)ccc2O[C@H]1CN(C)Cc1ccc(C(F)(F)F)cc1,0.5,i,-3,-24,1.6
O=C(c1ccc(N2C(=O)c3ccccc3C2=O)cc1)N1CCN(S(=O)(=O)c2ccccc2F)CC1,2.4,i,1,14,-0.4
C[C@H](NC(=O)[C@@H]1N[C@@H]2c3ccc(C4=CCCC4)c(=O)n3C[C@@H]2[C@H]1CO)c1ccccc1,0.1,i,-1,-9,1.4
COc1ccc(S(=O)(=O)N(C)C[C@H]2Oc3c(NC(=O)c4cc(C)nn4C)cccc3C(=O)N([C@H](C)CO)C[C@@H]2C)cc1,-14,i,-3,-4,1.1
C[C@@H]1CN([C@@H](C)CO)C(=O)Cc2cc(NC(=O)c3ccncc3)ccc2O[C@@H]1CN(C)S(=O)(=O)c1ccccc1,-1.1,i,1,2,1.2
C[C@H](CO)N1C[C@H](C)[C@@H](CN(C)S(=O)(=O)c2cn(C)cn2)Oc2ccc(NC(=O)Nc3ccccc3)cc2CC1=O,-0.8,i,3,-4,4.0
Cc1nc(-c2ccc(F)cc2)c(CC(=O)N2CCN(S(=O)(=O)c3cccc([N+](=O)[O-])c3)CC2)s1,-2.1,i,1,9,-0.9
O=C(c1ccccc1)N1C[C@H]2[C@@H](c3ccccc31)[C@H](CO)N2C(=O)Nc1ccccc1Cl,-0.9,i,-4,-13,2.2
O=S(=O)(c1ccc(F)cc1)N1CCCCN2[C@@H](CO)[C@@H](c3ccc(C4=CCCCC4)cc3)[C@@H]2C1,5.8,i,-38,-44,-2.7
N[C@@H]1CC[C@@H](CCn2cc(-c3cccc(F)c3)nn2)O[C@H]1CO,-1.7,i,0,-1,0.8
CCCNC(=O)[C@@H]1[C@@H](CO)[C@@H]2Cn3c(ccc(-c4ccccc4)c3=O)[C@H]1N2Cc1ccccc1F,-1.1,i,-4,-8,-1.4
Cc1noc(C)c1S(=O)(=O)Nc1ccc2c(c1)C(=O)N([C@H](C)CO)C[C@@H](C)[C@H](CN(C)C(=O)CCC(F)(F)F)OCCCC[C@@H](C)O2,3.6,i,0,0,1.1
N#CC(C#N)=NNc1ccc2cn[nH]c2c1,-5.4,i,-11,-9,0.9
CC(=O)NCCNC(=O)C1(C)Cc2c(-c3ccc(C(N)=O)cc3)ccnc2O1 (configuration not stated),-0.4,i,16,21,-3.4
COCC(=O)N1C[C@H](C)[C@@H](OC)CN(C)C(=O)c2cc(NC(=O)c3ccccc3)ccc2OC[C@@H]1C,-0.7,i,-1,2,-1.2
C[C@@H]1CN([C@@H](C)CO)C(=O)Cc2cc(NC(=O)Nc3ccc(C(F)(F)F)cc3)ccc2O[C@H]1CN(C)C(=O)Nc1ccccc1,1.0,i,0,-3,2.1
C[C@H](CO)N1C[C@H](C)[C@@H](CN(C)CC2CCOCC2)Oc2cc(Br)ccc2S1(=O)=O,3.7,i,-3,-6,-0.9
C[C@@H]1CN([C@H](C)CO)C(=O)Cc2cc(NC(=O)Nc3cccc4ccccc34)ccc2O[C@@H]1CN(C)C(=O)Nc1ccc2c(c1)OCO2,1.4,i,-3,1,2.5
CCC(=O)c1ccc(OCC(=O)NNC(=O)c2cc(C)oc2C)cc1,-4.7,i,0,3,0.8

# Shown with tabs: 2 of the compounds above
compound	AF4-AF9 inh	FGF22 binding	rRNA inh HTS	rRNA inh HTS OD600	rRNA inh HTS RFP
C[C@@H]1CN([C@@H](C)CO)C(=O)Cc2cc(NC(=O)c3ccncc3)ccc2O[C@@H]1CN(C)S(=O)(=O)c1ccccc1	-1.1	i	1	2	1.2
C[C@H](CO)N1C[C@H](C)[C@@H](CN(C)S(=O)(=O)c2cn(C)cn2)Oc2ccc(NC(=O)Nc3ccccc3)cc2CC1=O	-0.8	i	3	-4	4.0

# (list continues)
SMILES,AF4-AF9 inh,FGF22 binding,rRNA inh HTS,rRNA inh HTS OD600,rRNA inh HTS RFP
COc1ccccc1CCn1cnc(-c2ccc(F)cc2)c1C(C)C,18,i,-54,-79,-14
CCCN1C[C@H](C)[C@@H](OC)CN(C)C(=O)c2cc(NC(=O)c3cccc(F)c3)ccc2OC[C@@H]1C,2.5,i,1,-3,2.0
Fc1cccc(Cc2c(-c3ccccc3)nc3ccc(Br)cn23)c1,3.1,i,-9,-42,-6.4
C[C@H]1CN([C@@H](C)CO)C(=O)CCCn2nncc2CO[C@H]1CN(C)CC1CC1,1.2,i,2,8,-2.1
O=C(C1CC1)N1CC[C@H]2[C@H](CO)Nc3ccc(-c4cccc(F)c4)cc3[C@H]21,-2.8,i,-6,-1,-4.6
Cc1ccc(NC(=O)c2ccc(Br)o2)c([N+](=O)[O-])c1,4.1,i,0,-3,-2.5
C[C@@H]1CN([C@@H](C)CO)C(=O)Cc2cc(NS(=O)(=O)c3ccc(Cl)cc3)ccc2O[C@H]1CN(C)Cc1ccc(Cl)c(Cl)c1,-1.1,i,2,0,0.7
CCOC(=O)C1=CCN(S(=O)(=O)c2ccc(C)cc2)C1c1cccc(Br)c1 (configuration not stated),-0.9,i,-8,-14,-4.3
C[C@H](CO)N1C[C@H](C)[C@H](CN(C)C(=O)c2cccnc2)Oc2ncc(-c3ccc(C#N)cc3)cc2C1=O,-2.4,i,0,0,-0.9
C[C@@H]1CCCCO[C@H](CN(C)C(=O)Nc2cccc3ccccc23)[C@@H](C)CN([C@H](C)CO)C(=O)c2cc(NS(C)(=O)=O)ccc2O1,-9.8,i,2,2,-0.2
C[C@H]1CN([C@@H](C)CO)C(=O)c2cccc(NC(=O)C3CCCCC3)c2O[C@@H]1CN(C)Cc1ccc(C(=O)O)cc1,1.7,i,2,0,-1.7
CCCC(=O)Nc1ccc2c(c1)C(=O)N(C)C[C@H](OC)[C@H](C)CN(C(C)=O)[C@H](C)CO2,0.1,i,1,-1,-4.3
CO[C@H]1CN(C)C(=O)c2cc(NC(=O)C3CC3)ccc2OC[C@@H](C)N(C)C[C@H]1C,-3.1,i,3,3,0.8
CC(C)CNc1cccc2c1S(=O)(=O)N(Cc1ccc(F)cc1)[C@@H](C)[C@H](c1ccccc1)O2,-5.3,i,8,12,-0.7
CC(C)NC(=O)N(C)C[C@@H]1Oc2ccc(NC(=O)C3CC3)cc2CC(=O)N([C@@H](C)CO)C[C@@H]1C,-1.7,i,3,7,0.1
O=C(C[C@H]1C=C[C@H](NC(=O)Cc2ccccn2)[C@@H](CO)O1)NCCCN1CCOCC1,-1.1,i,3,3,1.1
CC(=O)N(C)C[C@@H]1Oc2cc(C#CC3CCCCC3)ccc2S(=O)(=O)N([C@@H](C)CO)C[C@H]1C,-0.5,i,-22,-56,17
C[C@H]1CN([C@@H](C)CO)C(=O)Cc2cc(NC(=O)C3CCCCC3)ccc2O[C@H]1CN(C)Cc1ccc(Oc2ccccc2)cc1,1.3,i,-4,6,-5.2
C/C=C/c1cnc2c(c1)C(=O)N([C@H](C)CO)C[C@@H](C)[C@@H](CN(C)C(=O)Nc1ccc(C(F)(F)F)cc1)O2,1.2,i,6,5,-1.4
O=C(O)CCC(=O)OCCN(Cc1ccc(Oc2ccc([N+](=O)[O-])cc2)cc1)C(=O)C(Cl)Cl,0.5,i,0,-3,1.3
COc1ccccc1CCn1cnc(-c2ccccc2)c1C(C)C,u,i,-57,-78,-14
COC(=O)C[C@@H]1C[C@H]2c3cc(NS(C)(=O)=O)ccc3O[C@H]2[C@H](CO)O1,-4.3&-2.6,i,8,10,-1.7
C[C@H]1CN([C@@H](C)CO)C(=O)Cc2cc(NC(=O)Cn3cnnn3)ccc2O[C@H]1CN(C)Cc1ccc(C(F)(F)F)cc1,-1.6,i,1,-1,1.2
Cc1ccc(NC(=O)CN(C)C(=O)c2cccc(S(=O)(=O)N3CCc4ccccc4C3)c2)cc1,0.1,i,-6,-6,-2.5
